Screens (PubChem BioAssay)
StopGo FLuc = FMDV 2A StopGo reporter, firefly signal. HEK cells with a luciferase reporter of 2A StopGo recoding. Potency, µM (highest dose often 57.5 µM), without a hit: at the highest dose signal change, negative = less light. actives 0.23% (n = 120,000); active = well fitted falling curve with a large enough effect; inconclusive = small, poorly fitted or top-dose-only effect; inactive = no such curve, though single readings can be large or run the other way; further: nearly all actives have a fitted effect of over 60% in size; overnight with compound
StopGo RLuc = lowers the Renilla signal of an FMDV 2A StopGo reporter; AID 1745857; actives 0.32% (n = 120,000); Potency, µM (titrated, usually from 57.5 µM), for the others: at the top dose signal change, negative = less light; HEK cells with a luciferase reporter of 2A StopGo recoding; active means well fitted falling curve with a large enough effect; inconclusive means small, poorly fitted or top-dose-only effect; inactive means no such curve, though single readings can be large or run the other way; further: nearly all actives have a fitted effect of over 55% in size; overnight with compound
An asterisk follows results filed as active; ? = inconclusive; [ ] = another dose, or the depositor's remark. On the % scale 0 is the no-effect control and ±100 the full control effect; potency means the concentration at half of the fitted maximal effect. Only part of the results is shown; the hit share may differ from the screen's.

Each structure is followed by: StopGo FLuc | StopGo RLuc
- COc1ccc(OCC(=O)N(Cc2ccc(-c3ccc(F)cc3)o2)C2CCS(=O)(=O)C2)cc1 (stereo not given)
 : ? | -10.2%
- CCCc1nc2ccccc2c(C(=O)OCC(=O)NC(=O)NC)c1CC
 : 7.2% | 15.1%
- N#Cc1nc(C2CC2)oc1N1CCN(Cc2nc(C3CC3)no2)CC1
 : 21.1% | 4.2%
- CCC(=O)Nc1ccc(S(=O)(=O)Nc2c(NC3CCCC3)c3ccccc3oc2=O)cc1
 : 0.0% | 36.1%[activator]
- CC(C)(C)c1ccc(C(CC(=O)O)NC(=O)Cc2ccccc2)cc1 (stereo not given)
 : 9.3% | -3.0%
- C=CCNCc1ccc(-c2cccc(Cl)c2C)o1
 : 34.8%[activator] | 9.4%
- C=CCOc1cccc(NC(=O)c2ccco2)c1
 : 25.5% | 0.0%
- Cc1cc(C)cc(C(=O)NCCC23CC4CC(CC(C4)C2)C3)c1
 : 8.6% | 15.7%
- Cc1ccc(Cn2c(=O)n(CCCC(=O)NCc3ccc4c(c3)OCO4)c(=O)c3ccccc32)cc1
 : -10.3% | -4.6%
- Cc1n[nH]c(C)c1S(=O)(=O)Nc1ncn(Cc2ccc(F)cc2Cl)n1
 : 10.9% | 4.1%
- COc1ccccc1CCNC(=O)C(C)Sc1nc(-c2ccccc2)cc(C(F)(F)F)n1 (stereo not given)
 : -20.3% | -13.6%
- Cc1nn(-c2nc3c(c(=O)[nH]c(=O)n3C)n2C/C=C/c2ccccc2)c(C)c1C
 : 16.9% | 7.6%
- Cc1nn(CC(=O)N2CCc3ccccc32)c(C)c1S(=O)(=O)N1CCCC(C(=O)NC(C)C)C1 (stereo not given)
 : -0.4% | -9.0%
- Cc1cc(SCC(=O)NC2(C#N)CCCCCC2)nc2ccccc12
 : -13.0% | 49.4%[activator]
- Cc1ccnc(SCc2nc3cc(NC(=O)c4cccc(Br)c4)ccc3n2C)n1
 : -56.6% | ?
- Cc1ccc2onc(CNC(=O)Nc3ccccc3C#N)c2c1
 : -6.5% | 30.7%[activator]
- CCCCCCn1c(CN2CCN(C)CC2)nc2c1c(=O)n(C)c(=O)n2C
 : -0.6% | -4.0%
- CCCCC(=O)Nc1nnc(S(=O)(=O)N(C)Cc2ccccc2)s1
 : -18.9% | 4.1%
- COc1ccccc1CNC(=O)C(Cc1ccccc1)NS(=O)(=O)c1ccc2c(c1)CCN2C(C)=O (stereo not given)
 : -16.7% | 49.8%[activator]
- CC(=O)NO
 : 19.4%[11.5 µM] | 0.0%
- O=C(COc1ccc([N+](=O)[O-])cc1)Nc1ccc2oc(-c3ccc(F)cc3)nc2c1
 : 0.0% | -1.8%
- O=c1[nH]c(=O)n([C@H]2C[C@H](O)[C@@H](CO)O2)cc1I
 : -5.3% | 1.2%
- CCN(Cc1ccc(OC)cc1)Cc1cc(=O)oc2c(C)cc(C)cc12
 : ? | -29.5%
- CCCC(=O)N1c2nc(CC)nn2C2(CCCCC2)[C@@H]2CCCC[C@@H]21
 : -24.2% | ?
- COc1ccc(/C=C/C(=O)NCc2ccccc2)cc1
 : 128.1%[activator] | 85.3%[activator]
- COc1cc(NC(=O)Cn2c(=O)oc3cc(S(=O)(=O)N4CCCCCC4)ccc32)cc(OC)c1
 : ? | 33.3%[activator]
- COc1ccc(NC(=O)CN2CCN(c3ccccc3F)CC2)c(OC)c1
 : 3.7% | 79.5%[activator]
- O=C(NCc1ccccc1Cn1cccn1)c1cn[nH]c1-c1ccc(Cl)cc1
 : -8.1% | -2.9%
- COc1ccc(NC(=O)CSc2cn(CC(=O)N3CCOCC3)c3ccccc23)cc1OC
 : 4.9% | -9.6%
- CCOC(=O)c1c(Nc2ccc(C)c(C)c2)nnc(-c2ccccc2)c1-c1ccccc1
 : -14.5% | -10.2%
- Cc1ccc2c(Cn3cc(S(=O)(=O)N4CCCC4)ccc3=O)cc(=O)oc2c1
 : -2.2% | 8.4%
- CCc1nn(Cc2ccc(Cl)cc2)c(=O)c2cc3cc(C)ccc3n12
 : -15.0% | 4.6%
- Cc1nc2cc(NC(=O)c3ccc(C(C)C)cc3)ccc2o1
 : ? | ?
- O=C(NCc1ccco1)c1cc2ccc(Cl)cc2[nH]1
 : 71.8%[activator] | 71.2%[activator]
- CCNc1nc(-c2ccc(NC(C)=O)cc2F)cs1
 : 189.2%[activator] | 10.5%
- Cc1ccc(OCC(=O)OCc2cc(=O)n3nc(C4CC4)sc3n2)cc1
 : 1.3% | -9.1%
- COc1ccc2cc(C(=O)N3CCN(S(=O)(=O)c4ccccc4)CC3)c(C)nc2c1
 : -10.8% | -16.1%
- COc1ccc2c(c1)N(S(=O)(=O)c1ccc(F)cc1)C(C)(C)C=C2C
 : ? | ?
- CN(C)CCN(Cc1ccc(F)cc1)C(=O)Nc1cccc2ccccc12
 : -12.7% | 0.8%
- Cc1ccc(S(=O)(=O)N2CCN(Cc3cccc4cccnc34)CC2)cc1
 : -5.5% | 1.6%

In a second layout: results already given
canonical_smiles: COc1ccc(NC(=O)CSc2cn(CC(=O)N3CCOCC3)c3ccccc23)cc1OC
  StopGo FLuc: 4.9%; StopGo RLuc: -9.6%
canonical_smiles: O=C(NCc1ccccc1Cn1cccn1)c1cn[nH]c1-c1ccc(Cl)cc1
  StopGo FLuc: -8.1%; StopGo RLuc: -2.9%

Remaining list, next part.
Each structure is followed by: StopGo FLuc | StopGo RLuc
- COc1cccc(CNC(=O)Cn2cc3c(n2)-c2c(oc(C(=O)N4CCCC4)c2C)CC3)c1
 : 0.9% | 2.8%
- CC(C)Cn1c(N)c(-c2csc(Nc3ccc(Cl)cc3)n2)c(=O)n(C)c1=O
 : -5.9% | -8.4%
- CC(C1CC1)N(Cc1ccc(C(N)=O)cc1)C1CC1 (stereo not given)
 : 0.0% | 1.2%
- NC(N)=NC(N)=NCc1cccnc1
 : 7.6% | 3.1%
- COC(=O)C1=CNC=C(C(=O)OC)C1c1ccc(F)c(F)c1
 : 7.3% | 5.4%
- Cn1c(=O)c2c(nc(Cl)n2CC(=O)N2CCCC2=O)n(C)c1=O
 : 0.0% | 11.5%
- COc1ccc(C2=NN3C(=O)c4ccccc4C3C2)cc1 (stereo not given)
 : 49.4%[activator] | 18.0%
- N#CC1=C2SCN(C3CCCCC3)CN2C(=O)CC1c1ccc(F)cc1 (stereo not given)
 : -19.0% | -7.1%
- CCSC1=N/C(=C\c2ccccc2OC)C(=O)S1
 : -9.1% | -0.3%
- Cc1ccc(-c2nnc(Nc3cccc(Br)c3)c3ccccc23)cc1S(=O)(=O)N1CCCCC1
 : -7.1% | 193.8%[activator]
- CC(C)NC(=O)C(C)Sc1nc(C2CC2)nc2ccccc12 (stereo not given)
 : -3.4% | -17.1%
- Cc1c(Cl)cccc1Nc1ccccc1C(=O)O
 : -9.1%[11.5 µM] | -2.5%
- C=CCNS(=O)(=O)c1ccc(C(=O)O)cc1
 : -1.0% | 3.8%
- COc1ccccc1NC(=O)c1ccc(-n2cccc2)cc1
 : 0.0% | -2.1%
- CCN(CC)S(=O)(=O)c1nnc(NC(=O)COc2ccccc2)s1
 : 145.1%[activator] | 93.6%[activator]
- CC(C)N(C(=O)COC(=O)c1cc(=O)c2ccccc2o1)C(C)C
 : 6.8% | -0.2%
- CCOc1ccccc1NC(=O)N1CCC(n2c(C)nc3cccnc32)CC1
 : -18.0% | -12.6%
- O=C(Cn1c(=O)n(Cc2ccc3c(c2)OCO3)c(=O)c2oc3ccccc3c21)Nc1ccccc1
 : -9.2% | 1.8%
- Cc1ccc(NC(=O)c2cnc(N3CCCC3)nc2C)cc1F
 : 40.6%[activator] | 19.3%
- Cc1cccc(C(=O)NC(Nc2ccc3ccccc3c2)C(Cl)(Cl)Cl)c1 (stereo not given)
 : ? | 21.1%
- C=CCn1c(SCCCCCCC)nc2c1c(=O)n(C)c(=O)n2C
 : 7.6% | -2.0%
- O=C(CCOc1ccccc1)N(Cc1cccnc1)c1nc2c(Cl)cccc2s1
 : -13.4% | -17.3%
- COc1ccc(N2CCN(C(=O)Nc3cccc(C(F)(F)F)c3)CC2)cc1
 : -7.2% | 24.4%
- Cc1ccc(NC(=O)Cn2cc3c(n2)CCCC3)c(C)c1
 : 6.3% | -3.2%
- NC1(C(=O)O)CCC(c2ccccc2)CC1 (stereo not given)
 : 10.3% | 4.4%
- COc1ccc(NC(=O)CSc2cn[nH]n2)c(OC)c1
 : 5.9% | -7.0%
- Cc1ccc2nc(C)c(C(=O)NCC(F)(F)F)cc2c1
 : 1.3% | 0.4%
- O=C(Nc1ccc(N2CCCC2=O)cc1)c1nn(-c2ccccc2)c(=O)c2ccccc12
 : -3.9% | 7.0%
- Cc1nn2c(NCCN(C)C)cc(C(C)(C)C)nc2c1-c1ccc(F)cc1
 : -3.3% | 8.5%
- CCN(c1cccc(C)c1)S(=O)(=O)c1nnc(NC(=O)c2cccs2)s1
 : -6.3% | 109.5%[activator]
- CN(Cc1ccccc1)C(=O)COC(=O)c1cc2ccccc2oc1=O
 : 23.8% | 0.0%
- COc1ccc(OC)c(CNC(=O)C2CCCCN2S(=O)(=O)c2ccc(F)cc2)c1 (stereo not given)
 : 1.6% | -5.0%
- CCOc1ccccc1NC(=O)C(=O)NCCc1sc2nc(-c3ccc(OC)cc3)nn2c1C
 : 42.5%[activator] | -4.6%
- CCNc1c(NC(=O)Nc2ccc(OCC)cc2)c(=O)oc2ccccc12
 : -9.9% | 5.9%
- Cc1ccc(-n2ncc(C(=O)NCc3ccc4c(c3)OCO4)c2C2CCN(C(=O)OC(C)(C)C)CC2)cc1C
 : -20.2% | 20.5%
- CCOCCCNC(=O)Cn1nc(C)n2c(cc3cc(C)ccc32)c1=O
 : -6.3% | -14.9%
- COc1ccccc1N1CCN(C(=O)COCC(=O)NCc2ccccc2)CC1
 : -3.3% | -6.6%
- O=C(Nc1ccc2[nH]cc(C(C(=O)O)N3CCCCC3)c2c1)c1ccccc1 (stereo not given)
 : 28.3% | 8.8%
- Cn1nc(-c2ccccc2F)c2cc(C(=O)N3CCOCC3)sc21
 : 16.8% | 14.8%
- CCOc1ccccc1CNCc1ccco1
 : 8.1% | 9.5%
- O=C(Nc1nc2c(s1)CCCCC2)c1ccc(Cl)cc1
 : -26.3% | 10µM*
- CCCCCCCn1c(Br)nc2c1c(=O)n(C)c(=O)n2C
 : ? | ?
- CCOC(=O)c1c(NC(=O)c2cc(-c3ccccc3OC)on2)sc(C)c1C
 : 3.8% | -7.6%
- Cc1ccc(-c2ccc(=O)n(CC(=O)Nc3ccc(C)cc3Cl)n2)cc1
 : -7.6% | 0.6%
- CCCn1ccc2c(OCC(=O)Nc3ccc(C(F)(F)F)cc3)cccc2c1=O
 : -1.2% | 5.2%
- CCCCc1c(C)nc2ccccc2c1SCC(=O)O
 : 1.7% | -10.1%
- COC(=O)c1c(NC(=O)/C(C#N)=C/c2ccc(OC)cc2)sc2c1C(C(=O)OC)CC2 (stereo not given)
 : 7.7% | ?
- Cc1[nH]nc2c1C(c1cccc(OCc3ccc(Cl)cc3)c1)C(C#N)=C(N)O2 (stereo not given)
 : 76.6%[activator] | -5.6%
- O=C(Cc1c[nH]c2ccccc12)OCc1cccc(Cl)c1
 : 10.3% | -7.5%
- Cc1ccccc1CN1CCN(c2nc3c(c(=O)[nH]c(=O)n3C)n2C/C=C/c2ccccc2)CC1
 : -5.0% | -0.6%
- CCOc1ccccc1CNC(=O)C1=C(C)C(=O)OC12CCN(C(C)=O)CC2
 : -8.4% | 5.4%
- Cc1cccc2c(=O)c(-c3ccccc3)c(NC(=O)c3cccs3)oc12
 : 21.9% | -0.6%
- COc1cc2c(=O)c(S(=O)(=O)c3ccc(C(C)C)cc3)cn(Cc3ccccc3C)c2cc1OC
 : 0.0% | 18.8%
- COc1cccc2cc(-c3cc(=O)oc4c(C)cc(C)cc34)oc12
 : 9.8% | 2.4%
- CCOC(=O)Cn1c(=O)oc2cc(S(=O)(=O)N3CCN(c4ccccc4OC)CC3)ccc21
 : -7.5% | -1.3%
- CCN(CC)S(=O)(=O)c1cc(C(=O)OCc2nc3ccccc3nc2C)ccc1C
 : 8.9% | -8.1%
- COc1ccc(-c2noc(N3CCC(C(=O)Nc4ccc(C)c(F)c4)CC3)n2)cc1OC
 : 20.2% | 64.1%[activator]
- COC(=O)c1c(NC(=O)C2CC2)sc(C)c1C
 : 8.1% | -0.7%
- Cn1c(C(=O)NCc2ccc(Cl)cc2)cc2c(=O)n(C)c3ccccc3c21
 : -0.4% | -5.9%
- CC(C)COc1ccc(C(=O)Nc2scc(-c3ccc(Br)cc3)c2C(=O)OC(C)C)cc1
 : 12.4% | 5.6%

(next part)
Each structure is followed by: StopGo FLuc | StopGo RLuc
- Cc1ccc(/C=C(/C#N)S(C)(=O)=O)c(C)c1
 : 1.1% | 9.8%
- CN(CCOc1ccc(F)cc1)C(=O)c1ccc2ccccc2n1
 : 129.2%[activator] | 26.1%
- O=C(NC1CCCC1)c1cc(-c2ccco2)nc2ccccc12
 : 5.4% | 5.4%
- CC(=O)c1cccc(NC(=O)COC(=O)Cc2cccc3ccccc23)c1
 : -1.8% | 3.9%
- CC1CCN(S(=O)(=O)c2nnc(NC(=O)c3cccc(F)c3)s2)CC1
 : -10.7% | -2.2%
- Cc1ccc(CN(CC(=O)N2CCc3ccccc3C2)S(=O)(=O)c2ccc(Cl)cc2)cc1
 : 0.9% | 110.0%[activator]
- O=C(CN1CCN(Cc2cccs2)CC1)Nc1cccc2nsnc12
 : 2.1% | -25.8%
- CC(NC(=O)C1CCN(C(=O)N2CCOc3ccccc32)CC1)c1ccccc1 (stereo not given)
 : -13.0% | 6.4%
- COc1cccc(NC(=O)c2nnn(Cc3cccc(C(F)(F)F)c3)c2N)c1
 : -1.2% | 86.3%[activator]
- Cc1oc(-c2ccc(C(C)C)cc2)nc1CSc1nc2c(=O)[nH]cnc2n1C
 : 1.2% | -10.3%
